# Bioassay records from PubChem BioAssay.
# CSC inhib – blocks cancer stem cells. inhibition, % at 7.5 µM. cancer stem cell-like cells viability, luminescence. 1.1% of 300,000 active;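 active = mean at 75% or more and at least half the replicates too; inconclusive = mean and replicates disagree; tested in HMLE shEcad cells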;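 note: 0% = median of negative and 100% = median of positive control wells; the first replicate is given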
# eIF4H FP inh – inhibitors of RNA binding by human eIF4H; eIF4H fluorescence polarization binding assay; AID 2012; inhibition, % at 35 µM; 0.94% of 290,000 active;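 active = 50% or more with normal probe brightness, or confirmed in later tests; inconclusive = above 50% with abnormal brightness, or retests that disagree; inactive = below 50% or failed in later tests; about a fifth of its hits are not listed in these tables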;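 note: calls also rest on retests at 20 µM and on dose response follow-up; 0% = protein and probe with vehicle and 100% = probe without protein; strong numbers were not always called active; many hits fall short of the cut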
# Yeast UUG start – yeast start codon fidelity modulation; S. cerevisiae UUG-firefly luciferase reporter, luminescence/redox ratio; activity score, % at 18.7 µM; 0.13% of 350,000 active;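 active = replicate mean at a twofold rise or more, about +100% in these data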;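 note: firefly luciferase made from a UUG start codon reports start codon fidelity; reporter light over untreated wells divided by growth signal over untreated wells; some hits fall short of that in this replicate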
# PABP FP inh – PABP-poly(A) binding inhibition; P11940; PABP-poly(A) RNA binding, fluorescence polarization; inhibition, % at 35 µM; 1% of 290,000 active;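 active = 50% or more with normal probe brightness, or confirmed in later tests; inconclusive = above 50% with abnormal brightness, or retests that disagree; inactive = below 50% or failed in later tests; about a fifth of its hits are not listed in these tables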;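 note: calls also rest on retests at 20 µM and on dose response follow-up; controls were probe without protein and protein plus probe with vehicle; some compounds called inactive have numbers as strong as hits; many hits fall short of the cut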
# Target sequence (P11940 whole entry, looked up): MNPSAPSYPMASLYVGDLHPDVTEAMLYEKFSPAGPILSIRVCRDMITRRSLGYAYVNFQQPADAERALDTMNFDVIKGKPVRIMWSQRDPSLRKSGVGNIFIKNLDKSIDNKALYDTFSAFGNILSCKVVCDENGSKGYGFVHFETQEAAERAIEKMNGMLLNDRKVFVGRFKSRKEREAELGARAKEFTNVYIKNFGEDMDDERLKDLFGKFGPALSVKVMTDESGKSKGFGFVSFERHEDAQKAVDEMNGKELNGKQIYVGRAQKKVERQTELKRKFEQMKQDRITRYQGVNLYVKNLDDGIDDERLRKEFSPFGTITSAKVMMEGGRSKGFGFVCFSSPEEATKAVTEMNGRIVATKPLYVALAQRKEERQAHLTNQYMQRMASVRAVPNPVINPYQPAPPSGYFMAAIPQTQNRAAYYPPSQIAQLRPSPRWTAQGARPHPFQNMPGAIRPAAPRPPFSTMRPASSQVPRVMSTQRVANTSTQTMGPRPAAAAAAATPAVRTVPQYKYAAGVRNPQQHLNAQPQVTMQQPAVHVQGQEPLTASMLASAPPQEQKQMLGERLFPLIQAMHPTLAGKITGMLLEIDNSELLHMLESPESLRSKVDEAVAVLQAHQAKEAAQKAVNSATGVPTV
# MT1-MMP act inh – MT1-MMP (human) activation inhibition; P50281; HT1080 RFP-PRO-GFP cells, GFP/RFP ratio fluorescence, overnight; percent of plate control window, DMSO zero; GFP/RFP ratio change, % at 20 µM; 0.061% of 360,000 active;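 active = GFP/RFP ratio change of at least 30% with cell ATP level not reduced by more than half and red fluorescence within 50% of control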; note: strong numbers were not always called active
#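 Material – HT1080 RFP-PRO-GFP cells · Control set – DMSO wells and RFP-L50D-GFP cells · Incubation – overnight cell settling, then overnight compound exposure, 37 °C, 5% CO2 · Compound dosing – single-point 20 µM compound, 1% DMSO · Read-out – GFP/RFP fluorescence ratio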
# Rce1 inh – blocks yeast Ras-converting enzyme; Q03530; AID 2563; calls only; yeast membranes, quenched prenylated peptide cleavage fluorescence; 0.27% of 290,000 active;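 active = fall in fluorescence gain of 50% or more versus controls, with final raw signal at or below 3038400; inconclusive = same 50% fall but final raw signal above 3038400; inactive = fall in fluorescence gain under 50%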;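 note: plate controls were neutral control wells for no effect and wells lacking membranes for full effect; tested at 10 µM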
# Env fusion inh – inhibitors of HIV Env-mediated cell fusion; HeLa-JRFL Env/CEM21 cell fusion, luciferase; 1.1% of 360,000 active; inhibition, % at 12.3 µM; AID 651610;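 active = mean replicate inhibition score of at least 50 and every replicate individually at or above 50; inconclusive = only one of the two criteria met; inactive = mean below 50 and not all replicates reaching 50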;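 note: 0% = plate neutral controls and 100% = maraviroc near 300 nM; one replicate is shown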
# eIF4H FP inh retest – recorded beside eIF4H FP inh, whose call it bears; inhibition, %; compound at 20 µM; confirmation average;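 mean of two retest wells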
# PABP FP inh retest – further read-out of PABP FP inh, marked with its call; inhibition, %; compound at 20 µM; confirmation repeats;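 mean of two retest wells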
# MT1-MMP act inh RFP – second read-out of MT1-MMP act inh, no call of its own (marks repeat the call); RFP signal change, %; measured here: RFP expression control read;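 0 = vehicle wells; hits needed this value within 50% of zero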
# An asterisk follows results filed as active; i = inactive; ? = inconclusive; . = no result given; & = joins results of further samples. A portion of the library; the hit share may differ from the screen's.
SMILES,CSC inhib,eIF4H FP inh,Yeast UUG start,PABP FP inh,MT1-MMP act inh,MT1-MMP act inh RFP,Rce1 inh,Env fusion inh,others
O=C(CCCC(=O)N1CCN(c2ccc([N+](=O)[O-])cc2)CC1)c1ccccc1,-1,0,.,3,4,5,i,-8,
CCOc1ccc(S(=O)(=O)N2CCN(C)CC2)c(C)c1C,-16,-6,-5,6,-3,-1,i,.,
O=C(Nn1cnc2ccccc2c1=O)c1ccccc1Cl,.,-8,-15,4,-7,-4,i,.,
CCOc1cccc(/C=N/Nc2nc(N3CCCC3)nc(N3CCCC3)n2)c1O,8,3,-10,-5,5,-1,i,-6,
Cc1cc(C(=O)N/N=C/c2ccc([N+](=O)[O-])cc2)c(C)o1,-7,2,.,6,8,5,i,14,
S=C(Nc1ccc(Br)cc1Cl)NN1CCOCC1,-6,-4,-27,-2,7,-1,i,0,
O=C(CSc1nnc(Nc2ccccc2F)s1)NC1CCCC1,4,.,-6,.,-2,-5,.,.,
CCC1CCCCN1CCCNC(=O)Cn1ncc2c(C)n(Cc3ccccc3Cl)c(C)c2c1=O (stereo not given),.,11,15,-1,3,2,i,-12,
CC(Oc1ccccc1Cl)C(=O)Nc1ccc(S(=O)(=O)N2CCCC2)cc1 (stereo not given),-7,.,.,.,-6,-2,i,-34,
CN(c1ccc(OCC(=O)N2CCOCC2)cc1)S(=O)(=O)c1ccc(F)cc1,-15,-11,.,3,3,-1,i,0,
CC(C)[C@H](NC(=O)N1c2ccccc2NC(=O)[C@@H]1C(C)C)C(=O)N[C@H](Cc1ccccc1)C(=O)O,-2,21,-16,-5,1,4,i,.,
COc1ccccc1NC(=O)C(C)OC(=O)c1cccc(-n2cnnn2)c1 (stereo not given),-4,.,-2,.,3,-1,i,-14,
COc1cc([C@@H]2[C@H]3CN(C)CC=C3C(C#N)=C(N)C2(C#N)C#N)cc2c1OCO2,-3,122,26,116,-56&-86,1&2,i,.,eIF4H FP inh retest=4;PABP FP inh retest=-6
Cc1onc(-c2c(F)cccc2Cl)c1C(=O)O/N=C(\N)c1ccc([N+](=O)[O-])o1,57,-11,-1,-1,0,-3,.,-7,
COc1ccc(Oc2cn[nH]c2-c2ccc(OCC(=O)NN)cc2O)cc1,.,2,-23,6,2,1,i,1,
CCN(C[C@H]1N[C@@](C)(C(=O)OC)[C@H]2C(=O)N(C)C(=O)[C@@H]12)S(=O)(=O)c1ccc(OC(F)(F)F)cc1,.,.,2,.,-2,1,.,-45,
CCN(CC)c1ccc(/C=N/NC(=O)CNC(=O)/C=C/c2ccco2)cc1,.,-3,-9,4,3,-1,i,-1,
O=c1[nH]c(-c2ccco2)nc2sc3c(c12)CCCC3,-7,-8,.,1,4,4,i,-109,
O=C(C1CC1)N(CCc1ccccc1)Cc1nc2ccccc2c(=O)[nH]1,-6,1,3,11,4,-5,i,.,
CCC(=O)Nc1cccc(-c2nnc(SCC(=O)NCc3ccco3)n2C)c1,-2,-2,-5,-6,-10,0,i,-37,
O=C(NCCS(=O)(=O)N1CCCCC1)c1ccc2c(c1)OCO2,-10,.,-9,.,2,2,i,-14,
Cc1ccc(CCNC(=O)C(C)n2nc(C)c3c(C)n(-c4ccccc4)nc3c2=O)cc1 (stereo not given),-1,-10,-4,8,3,-3,i,5,
CC1CC(C)CN(CCCNC(=O)C2CCN(c3nnc(-n4cccc4)s3)CC2)C1 (stereo not given),12,-10,-29,1,4,6,i,1,
O=[N+]([O-])c1ccccc1C=NNc1ccccc1,.,.,-10,.,3,3,.,-59,
CN(CC(=O)NCCc1ccc(S(N)(=O)=O)cc1)S(=O)(=O)c1ccc(Br)s1,-10,-9,-2,2,1,0,.,8,

# Next part (7 carried over from the part before).
SMILES,CSC inhib,eIF4H FP inh,Yeast UUG start,PABP FP inh,MT1-MMP act inh,MT1-MMP act inh RFP,Rce1 inh,Env fusion inh,others
O=C(C1CC1)N(CCc1ccccc1)Cc1nc2ccccc2c(=O)[nH]1,-6,1,3,11,4,-5,i,.,
CCC(=O)Nc1cccc(-c2nnc(SCC(=O)NCc3ccco3)n2C)c1,-2,-2,-5,-6,-10,0,i,-37,
O=C(NCCS(=O)(=O)N1CCCCC1)c1ccc2c(c1)OCO2,-10,.,-9,.,2,2,i,-14,
Cc1ccc(CCNC(=O)C(C)n2nc(C)c3c(C)n(-c4ccccc4)nc3c2=O)cc1 (stereo not given),-1,-10,-4,8,3,-3,i,5,
CC1CC(C)CN(CCCNC(=O)C2CCN(c3nnc(-n4cccc4)s3)CC2)C1 (stereo not given),12,-10,-29,1,4,6,i,1,
O=[N+]([O-])c1ccccc1C=NNc1ccccc1,.,.,-10,.,3,3,.,-59,
CN(CC(=O)NCCc1ccc(S(N)(=O)=O)cc1)S(=O)(=O)c1ccc(Br)s1,-10,-9,-2,2,1,0,.,8,
CC1=C(C#N)C(c2ccc(O)cc2)C2=C(CC(C)(C)CC2=O)N1 (stereo not given),-1,5,.,0,14,2,i,.,
CN(Cc1ccccc1)N=Nc1ccccc1,.,.,-28,.,-1,3,.,2,
O=C(NC(=S)Nc1ccccc1O)c1cncc(Br)c1,0,.,.,.,-19,1,i,-1,
CC(=O)Nc1c2c(nn1-c1ccc(Cl)cc1)CSC2,2,-9,-23,2,-3,2,i,11,
O=C(NCc1cccc(C(F)(F)F)c1)C1CC(c2ccccc2[N+](=O)[O-])=NO1 (stereo not given),1,5,8,-13,-2,-1,i,-12,
COC(=O)Nc1ccc(Oc2ccccc2)cc1,7,-4,-12,-8,1,3,i,-29,
S=C1NC[C@H](Cc2ccccc2)N1CCCCC1CCCCC1,136*,-14,-27,6,6,-2,i,24,
Cc1cc(C)nc(N2CCN(C(=O)CCC(=O)Nc3nnc(C(C)C)s3)CC2)n1,-12,-1,-9,0,8,2,i,-4,
C[C@@]12CCC=C[C@H]1[C@H](c1ccoc1)N(Cc1ccccc1)C2=O,9,-11,-12,5,0,4,i,-15,
CS(=O)(=O)N1CCN(c2ccccc2NC(=S)NC(=O)c2ccccc2[N+](=O)[O-])CC1,.,0,.,-6,-6,-8,.,-9,
CC(=O)c1ccc(N2CCN(C(=O)Cc3n[nH]c(=O)c4ccccc34)CC2)cc1,-16,5,-6,5,0,3,i,8,
O=C(OC1CCOC1=O)c1cc(-c2cccc(Br)c2)nc2ccccc12 (stereo not given),5,2,.,-4,2,0,i,-5,
COc1cccc(-c2nc(CCl)cs2)c1OC,6,-9,.,29,3,3,i,-8,
O=C(Nc1cnn(C23CC4CC(CC(C4)C2)C3)c1)c1cnn2cccnc12,13,2,-51,-10,3,-5,i,.,
CCOC(=O)CN1C(=O)CC(c2ccccc2)C1=O (stereo not given),-21,-6,-24,6,2,4,i,10,
Oc1c(Br)cc(/C=N/NC(=S)NCc2ccco2)cc1Br,5,1,.,10,3,6,i,2,
CC(=O)Nc1ccc(-c2cc(-c3ccc(NC(C)=O)cc3)nc(-c3ccccc3)n2)cc1,-1,-6,1,3,-1,1,i,.,
CCCCCCCc1c(C)nc(N2CCOCC2)[nH]c1=O,1,-1,-12,12,-3,-5,i,-17,
Cc1nn2c3c(cnc2c1-c1ccccc1)C(=O)CC(c1ccco1)C3 (stereo not given),-6,8,-5,9,-20,-8,i,-11,
O=C(Nc1nc(-c2ccccc2)c(-c2ccccc2)o1)c1ccc(F)cc1,9,18,-15,-4,-8,-13,i,?,
COc1ccc(C2CC(c3ccc(F)cc3)Nc3nc(N)nn32)cc1OC (stereo not given),-1,-6,9,7,4,6,i,4,
C#CCOCCOCCOCCNc1nc(N2CCN(C(=O)C([C@@H](C)CC)n3cc(C(N)COC(=O)C(F)(F)F)nn3)CC2)nc(N2CCN(C(=O)[C@H](CCC(=O)O)n3cc(C(N)CC(C)C)nn3)CC2)n1 (stereo not given in full),-7,.,.,.,.,.,i,7,
CCN(CC(=O)NCc1ccc(Cl)cc1)C(=O)NCc1ccc(Cl)cc1,-13,-14,-13,-3,2,-3,i,12,
CCOc1cc(CNCC2CCCO2)cc(Br)c1OCC(N)=O (stereo not given),-10,-3,-2,-13,2,0,i,-50,
CCN(c1ccccc1)S(=O)(=O)c1ccc(Cl)c(NC(=O)COC(=O)c2ccc(O)cc2)c1,-1,-1,.,-6,5,0,i,-29,

# Compounds listed so far with two or more sulfur atoms (three):
SMILES,CSC inhib,eIF4H FP inh,Yeast UUG start,PABP FP inh,MT1-MMP act inh,MT1-MMP act inh RFP,Rce1 inh,Env fusion inh,others
O=C(CSc1nnc(Nc2ccccc2F)s1)NC1CCCC1,4,.,-6,.,-2,-5,.,.,
CN(CC(=O)NCCc1ccc(S(N)(=O)=O)cc1)S(=O)(=O)c1ccc(Br)s1,-10,-9,-2,2,1,0,.,8,
CS(=O)(=O)N1CCN(c2ccccc2NC(=S)NC(=O)c2ccccc2[N+](=O)[O-])CC1,.,0,.,-6,-6,-8,.,-9,

# Next entries
SMILES,CSC inhib,eIF4H FP inh,Yeast UUG start,PABP FP inh,MT1-MMP act inh,MT1-MMP act inh RFP,Rce1 inh,Env fusion inh,others
COc1ccccc1NC(=S)N(Cc1ccco1)Cc1cc2cccc(C)c2[nH]c1=O,-1,-14,-4,-7,0,-2,i,-68,
Cc1ccccc1-c1nnc(SCc2ccc(F)cc2)o1,-3,0,-7,-7,-3,-3,i,-118,
CC(=O)Nc1cccc(NC(=O)c2ccc(S(=O)(=O)NCc3ccco3)cc2)c1,.,.,20,.,-1,-6,.,40,
c1ccc(CSc2ccc(-c3cccnc3)nn2)nc1,-8,4,.,-2,0,2,i,-9,
Cc1ccc(C(=O)Nc2onc(C)c2C#N)cc1,-2,8,-15,8,0,2,i,.,
COC(=O)c1c(-c2ccsc2)sc2ccc(-c3cc(OC)c(OC)c(OC)c3)cc12,56,.,15,.,-3,-4,.,59*,
CCOc1ccc(Cn2ccnc2CCl)cc1[N+](=O)[O-],.,-11,-15,-9,-2,-5,i,.,
CC1CC(C)(C)NC(=S)N1CC(=O)NCc1ccc2c(c1)OCO2 (stereo not given),-23,-7,.,-6,1,1,i,-5,
COc1ccc(CCNC(=O)CC(=O)N/N=C/c2ccc(C(=O)O)cc2)cc1OC,-17,4,-6,9,1,1,i,-4,
Cc1nnsc1C(=O)N1CCCC(N2CCN(c3cccc(C(F)(F)F)c3)CC2)C1 (stereo not given),11,-2,-1,-4,0,-5,i,1,
Cc1cc(NS(=O)(=O)c2ccc(NC(=O)CSc3nc4ncc(Br)cc4[nH]3)cc2)nc(C)n1,3,-2,-6,15,4,3,i,8,
COc1cc(OC)cc(C(=O)NCC(=O)Nc2ccc(OC)c(Cl)c2)c1,2,-6,0,16,-5,-1,i,11,
COc1ccc(N(CC(=O)NN=C2CCCCCCC2)S(=O)(=O)c2ccccc2)cc1,-17,-4,-12,-2,2,-1,i,.,
C=C(C)COc1ccc(-c2nc(N)ncc2-c2ccc(Br)cc2)c(O)c1,107*,-7,-12,2,5,5,i,6,
